# Bioassay records: PubChem, ICCB-Longwood Screening Facility, Harvard Medical School
# S aureus helic – inhibitors of S. aureus replicative helicase, primary screen, biochemical, fluorescence unwinding readout; inhibition, %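 (tested at about 80 µM)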; purified S. aureus helicase, fluorescence unwinding assay; about half of the hits fall short of the stated cut; hit rate 0.05% among 120,000;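 active means both duplicates at 50% or more, or one of them with a favoured structure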;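 further: 0% = mean of negative control wells and 100% = mean of positive control wells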
# MgrA-DNA mod – S. aureus MgrA activity modulators, primary screen, biochemical, S. aureus Newman, fluorescence polarization. MgrA-DNA binding. inhibition, %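 (about 10 µg/mL by stock and volumes)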. hit rate 0.13% among 84,000. AID 602314, 2012;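 active means above 50% in either of two replicates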;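 further: 0% = protein plus DNA without compound and 100% = DNA alone without protein; higher means less MgrA bound to DNA so lower polarization; one replicate is shown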
# * = called active by the depositor; . = not tested or not shown. Some of the compounds tested, so the mix of outcomes need not match the whole.
nr	Molecule	S aureus helic	MgrA-DNA mod
1	O=C(Nc1nncs1)c1cccc(Cl)c1	1	-1.4
2	NNc1ccc(C(=O)O)cc1	-8	.
3	O=C(NCc1ccco1)c1noc2c1CCCC2	-16	.
4	CCC(CC)c1nc(Nc2ccccc2)c2ccccc2n1	9	3.2
5	COc1ccc(Cl)cc1C(=O)Nc1ccc(Cl)c(-c2nc3c(ccc4ccccc43)o2)c1	.	1.5
6	COc1ccc(S(=O)(=O)NCC(F)(F)F)cc1Br	0	.
7	CCN(C(=O)c1cnccc1C(F)(F)F)c1nc2cc(Cl)ccc2s1	.	-0.8
8	CN(Cc1ccccc1)C(=O)c1cc2c(=O)[nH]c3ccccc3c2s1	7	.
9	COc1ccc(OCC(Cn2cnc3ccccc32)OC(C)=O)cc1 (stereo not drawn)	11	.
10	CCOC(=O)c1c(NC(C)=O)no[n+]1[O-]	15	2.2
11	CS(=O)(=O)c1ccc(Cl)c(NC(=O)C2CCCC2)c1	-14	.
12	CC(C)CCn1c(SCc2ccccc2F)nc2nccnc2c1=O	-10	.
13	CCN(CC)C(=O)c1c2c(nc3ccccc13)CCCC2	20	.
14	Cc1ccc2c(c1)CCCN2CC(=O)NCC(F)(F)F	-1	.
15	CC(Sc1nc(C2CC2)n(-c2ccccc2)n1)C(=O)NCc1ccc2c(c1)OCO2 (stereo not drawn)	-16	.
16	COc1ccc(-c2[nH]ncc2C(=O)NC2CCCCC2)cc1	-16	1.3
17	Cc1noc(C)c1CSc1ncccc1C(=O)N1CCN(S(=O)(=O)c2ccccc2C#N)CC1	13	.
18	Clc1ccc(-c2cc3nnc(-c4ccccc4)nc3s2)cc1	.	3.3
19	CC1(C)OC(=O)C(C#N)=C1/C=C/c1ccco1	0	0.6
20	CC(=O)NCCOc1cc(C)ccc1C(C)C	15	2.9

# A few values from the results shown:
# compound 10 in S aureus helic: 15
# compound 4 in MgrA-DNA mod: 3.2
# compound 14 in S aureus helic: -1
# compound 18 in MgrA-DNA mod: 3.3
# compound 12 in S aureus helic: -10
# compound 13 in S aureus helic: 20

# (next part)
nr	Molecule	S aureus helic	MgrA-DNA mod
21	Cc1nnsc1-c1nnc(C2CCCCC2)o1	.	0.0
22	COC(=O)C1=C(Nc2ccc(OC(=O)Nc3ccc(OC(F)(F)F)cc3)cc2)CSC1	.	-0.2
23	Cc1nn(-c2ccccc2)nc1C(=O)N1CCC(O)(c2ccc(Cl)cc2)CC1	.	0.6
24	Cn1c(=O)n(Cc2ccc(F)cc2)c(=O)c2c1nc1oc(-c3ccc(Cl)cc3)cn12	19	.
25	CC1CCCCC1NS(=O)(=O)c1ccc(Cl)cc1 (stereo not drawn)	6	0.8
26	CCOC(=O)C1CCN(Cc2cc(Cl)c3cccnc3c2O)CC1	11	.
27	O=C(NCCN1CCOCC1)c1nn2c(c1Br)NC(c1ccccc1)CC2C(F)(F)F (stereo not drawn)	.	-0.6
28	OCC(CO)(CO)N=Cc1cc(Br)ccc1O	8	2.4
29	CCOC(=O)COc1ccccc1C1C(C(=O)OCC)=C(N)Oc2n[nH]c(-c3ccccc3)c21 (stereo not drawn)	10	-1.9
30	Oc1oc(-c2ccccc2)nc1/C=N/c1ccccn1	-18	13
31	O=C(CSc1nnnn1-c1ccccc1)N1CCCC1	14	.
32	NC(=O)C1CC(=O)N(Cc2ccccc2)C1 (stereo not drawn)	.	0.8
33	C=CCn1c(CCC)nc2ccccc21	11	.
34	N=c1c2c3c(sc2ncn1CCN1CCOCC1)CCCCC3	5	-0.2
35	O=S(=O)(NCC12CC3CC(CC(C3)C1)C2)c1ccc(Cl)c2ccccc12	-8	-2.4
36	CC(C)Cn1c(SCC(=O)N2CCCC2=O)nc2cc(Cl)ccc2c1=O	7	.
37	O=C(c1ccc(F)cc1)c1c[nH]c(C(=O)NCc2ccco2)c1	.	3.6
38	O=C(NC1CCCCC1)c1ccco1	3	-2.3
39	C=CCN(C(=O)c1ccccc1)c1ccc(OC)cc1	6	2.4
40	CC(C)Oc1ccc(Cc2cnc(=S)[nH]c2N)cc1	0	-0.4
41	Cc1nn(-c2ccc(F)cc2)c(-n2cccc2)c1C(=O)NCC(C)c1ccccc1 (stereo not drawn)	28	.
42	CCOC(=O)C1=C(C)NC(=O)CC1c1ccccc1C(F)(F)F (stereo not drawn)	.	0.4
43	c1ccc2cc3c(Nc4ccc(N5CCOCC5)cc4)ccnc3cc2c1	18	4.7
44	O=C1c2ccccc2C(=O)N1CCCn1nnc(-c2ccc(N3CCOCC3)cc2)n1	1	-3.4
45	CCOc1ccc(-n2c(N)c3c(N)nc(N4CCOCC4)c(C#N)c3c(C#N)c2=S)cc1	-6	.
46	O=C(O)c1c(F)c(F)c(F)c(F)c1C(=O)O	2	.
47	CC(=O)N1C(=O)/C(=C2\SC(=S)N(NC(=O)c3ccc(O)cc3)C2=O)c2ccccc21	.	2.5
48	Cc1ccc(Oc2ncccc2C(=O)n2ccc(-c3cccs3)n2)cc1	-5	.
49	CC1Oc2ccccc2C=C1/C=C(\C#N)C(=O)N1CCCCC1 (stereo not drawn)	5	.
50	CN(C)CCCN(S(=O)(=O)c1cc(C(F)(F)F)cc(C(F)(F)F)c1)S(=O)(=O)c1cc(C(F)(F)F)cc(C(F)(F)F)c1	.	0.8
51	Cc1c(F)cccc1NS(=O)(=O)c1ccc2c(c1)CCN2S(C)(=O)=O	3	-3.4
52	CC1CCCCN1c1nn2nnnc2c2ccccc12 (stereo not drawn)	-2	.
53	CCOC(=O)CSc1nc(-c2ccc3c(c2)OCO3)ccc1C#N	1	0.4
54	O=C(Nc1ccc(Cl)cc1)c1snnc1-c1ccccc1	.	4.0
55	Fc1ccc(C2c3cccn3CCN2C(=S)Nc2cccc(F)c2)cc1 (stereo not drawn)	5	1.0
56	COc1ccc(/C(O)=C2\NS(=O)(=O)c3ccccc3C2=O)cc1OC	4	.
57	O=C(Nc1ccc(-c2nc3ccccc3s2)c(O)c1)c1ccccc1F	.	-0.2
58	COc1ccc2[nH]c3c(=O)n(CC(=O)N4CCN(c5ccc(F)cc5)CC4)c(=S)[nH]c3c2c1	11	-0.4
59	CCNC(=O)c1cc(=O)[nH]c2ccccc12	-8	.
60	COCCCNC(=S)N/N=C/c1ccccn1	.	2.5
61	Cc1nnsc1C(=O)Oc1ccc(-c2n[nH]nc2C#N)cc1	.	6.0
62	CCOC(=O)c1cnc2c(C)c(C)ccc2c1NCCCCCO	33	2.5
63	CC(=O)Nc1ccc(S(=O)(=O)N2CCCCC2C(=O)O)cc1 (stereo not drawn)	-12	.
64	CN(C)C(=S)NCCC1=CCCCC1	.	-0.3
65	CC1CCCC(Nc2c(-c3ccc(Cl)cc3)nc3c(C#N)c[nH]n23)C1C (stereo not drawn)	49	3.0
66	CC1CC(=O)c2cc(Cl)ccc2S1(=O)=O (stereo not drawn)	.	-5.5
67	CCOC(=O)C1=C(O)/C(=C/c2ccco2)SC1=Nc1cccc(Cl)c1	27	.
68	CCOC(=O)c1sc2nc(CSc3nc(C)cc(=O)[nH]3)cc(=O)n2c1C	23	.
69	O=S(=O)(c1ccc(Cl)cc1)c1cc(C(F)(F)F)cc(C(F)(F)F)c1	.	-1.2
70	O=C(O)c1csc(-c2ccccc2)n1	-9	.
71	O=S1(=O)CCC(N=Nc2c(O)[nH]c3ccc(Br)cc23)C1 (stereo not drawn)	-12	.
72	CS(=O)(=O)N1CCCc2cc(C(=O)CSc3nnc(COc4ccccc4Cl)o3)ccc21	20	.
73	COc1ccccc1N1C(=O)C(=Cc2ccco2)C(=O)N(c2ccccc2OC)C1=O	.	2.2
74	Cn1c(NCc2ccccc2)cc(=O)n(C)c1=O	15	.
75	Cc1ccc(NC(=O)C2C(=O)N(CCO)C3(C)CC2c2ccccc2O3)c(C)c1 (stereo not drawn)	6	-2.0
76	O=C(NCc1ccc2c(c1)OCO2)C1CCCN(S(=O)(=O)c2cnc[nH]2)C1 (stereo not drawn)	-15	.
77	Cc1ccccc1-c1nc(-c2ccccn2)no1	-25	.
78	C/C(=N\NC(=O)N/N=C(\C)c1ccc2ccccc2c1)c1ccc2ccccc2c1	.	-2.0
79	CCOc1ccccc1NC(=O)N1CCCC(c2nc3c(nnn3Cc3ccc(C)cc3)c(=O)[nH]2)C1 (stereo not drawn)	3	-0.6
80	Nc1nc2ccccc2n1Cc1ccccc1F	-13	-3.0

# Next part.
nr	Molecule	S aureus helic	MgrA-DNA mod
81	O=C(Cc1ccc(Cl)cc1)NCc1ccc2[nH]c3c(c2c1)CCCC3	14	0.8
82	N/C(Cc1ccc(Oc2c(Cl)cncc2Cl)cc1)=N\O	.	-1.1
83	O=c1[nH]n(-c2ccccn2)c(=O)c2ccccc12	14	.
84	Cc1nc2c(C(=O)NCCN3CCOCC3)cnn2c(C)c1Cc1cccc(Cl)c1	5	.
85	CCCC(=O)Oc1ccc2oc(-c3ccc(OC)cc3)cc(=O)c2c1	13	-1.2
86	COc1cccc(C(=O)N2CCN(Cc3cccc(C)c3)CC2)c1OC	0	-1.6
87	CC(C)C(=O)NC(c1ccc(N(C)C)cc1)c1ccc2cccnc2c1O (stereo not drawn)	4	.
88	CC(=O)N1Cc2ccccc2CC1C(=O)Nc1ccc(S(=O)(=O)N(C)C)cc1 (stereo not drawn)	6	.
89	COc1cc(OC)cc(C(=O)Nc2ccccn2)c1	2	-4.2
90	CP(C)(=O)c1ccccc1C(=O)O	3	-4.0
91	Clc1ccccc1-c1nc(-c2ccc3nonc3c2)no1	.	-3.0
92	CN(C)c1ccc(CNCCC2(O)CCOC(C)(C)C2)cc1 (stereo not drawn)	-10	.
93	N#CCOC(=O)c1nc(-c2ccccc2)n(-c2ccccc2)n1	-9	.
94	O=C(Nc1cccnc1)c1noc2c1CCCC2	-3	2.5
95	OC(COc1ccccc1)CSc1nc2ccccc2o1 (stereo not drawn)	6	-3.1
96	CCCNC(=O)Nc1ccccc1C	-14	.
97	O=C(c1ccc(Cl)cc1)C1CCNCC1	.	-0.1
98	CCOc1cc(C(=O)N2CCN=C2SC)cc(OCC)c1OCC	10	.
99	COc1cccc(OC)c1C(=O)NC(=S)Nc1ccc2[nH]c(=O)[nH]c2c1	12	0.5
100	CCn1cc(CNC(=S)Nc2cccc(Cl)c2C)cn1	-7	1.2

# An excerpt of these results, with two lines to a compound.
# Values in the order – S aureus helic | MgrA-DNA mod
[82] N/C(Cc1ccc(Oc2c(Cl)cncc2Cl)cc1)=N\O
 : . | -1.1
[89] COc1cc(OC)cc(C(=O)Nc2ccccn2)c1
 : 2 | -4.2
[86] COc1cccc(C(=O)N2CCN(Cc3cccc(C)c3)CC2)c1OC
 : 0 | -1.6
[88] CC(=O)N1Cc2ccccc2CC1C(=O)Nc1ccc(S(=O)(=O)N(C)C)cc1 (stereo not drawn)
 : 6 | .

# Other records:
nr	Molecule	S aureus helic	MgrA-DNA mod
101	Cc1ccc(CN(C)C(=O)COc2ccccc2C#N)o1	11	.
102	N#CC(C#N)=CNc1ccc(S(=O)(=O)c2ccc(NC=C(C#N)C#N)cc2)cc1	3	.
103	COC(=O)C1=C(C)n2nnnc2NC1c1ccc(Cl)cc1 (stereo not drawn)	10	.
104	COC(=O)c1cc(Cn2cc(C(F)(F)F)cc(Cl)c2=O)oc1C	-16	.
105	Cc1ccc(-c2csc(-c3ccno3)n2)cc1	-17	.
106	O=S(=O)(NC1Cc2ccccc2C1)c1ccc(Cl)s1	.	-13
107	O=S(=O)(Nc1ccc(N2CCCCC2)cc1)c1ccc(-c2cc(C(F)(F)F)on2)s1	-8	.
108	O=C(O)C1C2CCC(C2)C1C(=O)NCCCN1CCCC1=O (stereo not drawn)	1	1.4
109	CC(=O)Nc1cccc(-c2nnc(-c3cccc(C)c3)o2)c1	6	-2.0
110	O=C(NCc1ccccc1)C(C(=O)c1ccccc1)n1ccccc1=O (stereo not drawn)	8	-1.6
111	CS(=O)(=O)c1ccc(Br)cc1	-5	2.1
112	CCOC(=O)c1c(-c2ccc(F)cc2)csc1N	.	0.8
113	CCCNC(=O)CCc1c(C)nc2cc(-c3ccccc3)nn2c1C	10	-2.4
114	O=C(OCC(=O)c1ccco1)c1ccc(S(=O)(=O)NCc2ccco2)cc1	-8	.
115	CC(C)(C)OC(=O)N1CCC(c2cc(=O)n3[nH]cc(C(=O)NC4CCCC4)c3n2)CC1	-6	.
116	CCOCCSc1nc(=O)n2cc(C)ccc2n1	5	.
117	O=C(OCc1ccco1)c1cc2ccccc2oc1=O	24	.
118	O=C(CCNS(=O)(=O)c1ccc2c(c1)OCCO2)NC1CCN(Cc2ccccc2)CC1	-19	.
119	CN1C(=O)/C(=C2\SC(N3CCOCC3)=NC2=O)c2ccccc21	16	.
120	CC(C)NC(=O)CSc1nnc(Cc2ccccc2)n1Cc1ccco1	5	1.8
121	CC1(C)COC(CC(=O)c2ccc(Cl)cc2)=N1	5	.
122	CCC(=O)N1c2ccc(S(=O)(=O)CCC(=O)Nc3cccc(-c4ccno4)c3)cc2CC1C (stereo not drawn)	3	.
123	Cc1nc(S(=O)(=O)N(C)c2ccccc2)c(C#N)c(C)c1Cl	7	.
124	CCCCN1C(=O)c2ccc(C(=O)Nc3ccc(S(=O)(=O)N(C)C)cc3)cc2C1=O	17	.
125	CC1CCCCN1C(=O)Cn1ncc2c1-c1ccccc1OC2 (stereo not drawn)	18	0.2
126	O=C(OCCN=C1NS(=O)(=O)c2ccccc21)c1ccccc1	.	1.9
127	Cc1ccccc1NC(=O)c1cc(=O)[nH]c2ccccc12	-26	1.0
128	CCN(Cc1ccncc1)C(=O)c1cc2ccccc2oc1=O	5	-0.8
129	Clc1cc(Cl)c2nc(Oc3cccc(N4CCOCC4)c3)sc2c1	.	0.1
130	CCc1ccc2[nH]c3nc(SCC(=O)OC(C)C)nnc3c2c1	-3	2.1
131	O=C(N1CCOCC1)N1CCc2ccccc21	11	-1.8
132	O=C1C2=C(C(=O)c3ccccc31)C(c1ccccc1O)c1sc(=O)[nH]c1S2 (stereo not drawn)	11	.
